Bioassay records: PubChem, National Center for Advancing Translational Sciences (NCATS)
miR-21 reporter: raises the signal of a miR-21 reporter | HeLa miR-21 FLuc reporter, luciferase, 48 h | Potency, µM (doses to about 38.3 µM), for the others: top-dose reporter change, positive = more light | 340,000 tested, under 10 active; active = well fitted rising curve with a large enough effect; inconclusive = small, poorly fitted or top-dose-only effect; inactive = no such curve, though single readings can be large or run the other way;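 also: % of control where 0% means no effect; miR-21 action dims this reporter so a rising signal means less miR-21 action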
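HeLa cells stably expressing CMV-driven firefly luciferase with a downstream miR-21 binding sequence, endogenously expressing miR-21, were treated with titrations (up to about 40uM final) for 48 hours at 37 degree Celsius. Luciferase luminescence was read after lysis.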
Numbers without * were called inactive; ? = inconclusive. Only part of the results is shown. The share of hits here may be higher or lower than overall.

> CCOC(=O)c1ccc(N2C(=O)c3n[nH]c(-c4cccs4)c3C2c2ccc(OC)cc2OC)cc1 (stereo unspecified)
- miR-21 reporter: ?
> CC(C)c1ccc(NC(=O)c2ccc3c(c2)CCN3S(=O)(=O)c2ccccc2)cc1
- miR-21 reporter: ?
> CCc1ccc(CNC(=O)c2ccc3c(c2)N=C(C)c2cc(C)ccc2S3)cc1
- miR-21 reporter: ?
> CCOc1ccc(CN(CCc2ccc3c(c2)OCO3)Cc2cccc(OC)c2)cc1
- miR-21 reporter: 2%
> Cc1cccc(OCC(=O)N2CCN(CCc3ccccn3)CC2)c1
- miR-21 reporter: -6%
> CCn1c(CN2CCN(C)CC2)nc2ccccc21
- miR-21 reporter: -3%
> Cc1ccc(-n2c(/C=C/c3cc(Br)cs3)nc3ccccc3c2=O)cc1C
- miR-21 reporter: 2%
> Cc1ccccc1-n1c(/C=C/c2ccc(N(C)C)cc2)nc2ccccc2c1=O
- miR-21 reporter: 17%
> COc1ccc(-c2nc(CN3C(=O)CN=C(c4ccccc4)c4ccccc43)c(C)o2)cc1OC
- miR-21 reporter: 28%
> O=C(COc1ccccc1Cl)N1CCN(CCc2ccncc2)CC1
- miR-21 reporter: -9%

The last two entries of the part before open the next one.
> COc1ccc(-c2nc(CN3C(=O)CN=C(c4ccccc4)c4ccccc43)c(C)o2)cc1OC
- miR-21 reporter: 28%
> O=C(COc1ccccc1Cl)N1CCN(CCc2ccncc2)CC1
- miR-21 reporter: -9%
> N#Cc1cc2c(nc1SCC(=O)Nc1ccc(F)c(Cl)c1)C1CCN2CC1
- miR-21 reporter: -37%
> Cc1ccc(C(=O)Nc2ccccc2)cc1S(=O)(=O)N1CCCC1
- miR-21 reporter: -21%
> CCOc1cc2[nH]c(=O)n(CCCC(=O)N3CCN(c4cccc(Cl)c4)CC3)c(=O)c2cc1OCC
- miR-21 reporter: ?
> CCOC(=O)c1cc(-c2ccccc2)n(CCCC(=O)Nc2ccc(C)c(C)c2)c1C
- miR-21 reporter: ?
> O=C1CC(c2ccc(Br)cc2)c2c(c3ccccc3oc2=O)O1 (stereo unspecified)
- miR-21 reporter: 1%
> O=C(Cn1cc(C(=O)c2ccccc2)c2ccccc21)Nc1ccc(Br)cc1
- miR-21 reporter: 0%
> Cc1ccc2oc(-c3ccc(Cl)cc3)c(O)c(=O)c2c1
- miR-21 reporter: -40%
> COc1cccc(/C=C/c2nc3ccccc3c(=O)n2-c2ccc(Cl)cc2)c1OC
- miR-21 reporter: -3%
> Cc1ccc(S(=O)(=O)N(CC(=O)NCCSc2ccc(Cl)cc2)c2ccccc2C)cc1
- miR-21 reporter: ?
> Cc1ccc(Cn2c(SCc3ccc(C(=O)NC4CCCC4)cc3)nc3ccncc32)cc1
- miR-21 reporter: ?

> O=C1CC(c2ccc(C(F)(F)F)cc2)c2c(c3ccccc3oc2=O)O1 (stereo unspecified)
- miR-21 reporter: -1%
> Cc1cccc(-n2c(/C=C/c3c[nH]c4ccccc34)nc3ccccc3c2=O)c1
- miR-21 reporter: 5%
> Cc1c(Cl)cccc1NC(=O)CN1C(=O)C(C)N=C(c2ccccc2)c2ccccc21 (stereo unspecified)
- miR-21 reporter: 0%
> CCc1cccc(NC(=O)c2ccc(NC(=O)N3CCSc4ncccc43)cc2)c1
- miR-21 reporter: -32%
> CCN(CC)CCSc1nc2ccccc2c(=O)n1-c1ccc(Cl)cc1
- miR-21 reporter: 17%
> O=c1c2ccccc2nc(/C=C/c2ccccc2)n1-c1ccccc1F
- miR-21 reporter: 19%
> COc1cc(C(=O)NCCSc2c(-c3ccccc3)[nH]c3ccccc23)cc(OC)c1OC
- miR-21 reporter: ?
> COc1ccc(NC(=O)c2cccn(Cc3ccc(Cl)cc3)c2=O)c(OC)c1
- miR-21 reporter: 10%
> COc1cc2[nH]c(=O)n(Cc3ccc(C(=O)N4CCN(c5ccc(Cl)cc5)CC4)cc3)c(=O)c2cc1OC
- miR-21 reporter: ?
> COc1ccc(CNC(=O)c2cc3c(-c4ccccc4F)nn(C)c3s2)c(OC)c1
- miR-21 reporter: ?

> CCOc1ccc2nc(NC(=O)c3cccn(Cc4ccc(C)cc4)c3=O)sc2c1
- miR-21 reporter: -2%
> Oc1ccc(C(=C(Cl)Cl)c2ccc(O)cc2)cc1
- miR-21 reporter: 1%
> Cc1ccc(OCC(=O)N2CCN(CCc3ccncc3)CC2)cc1C
- miR-21 reporter: -11%
> Cc1cc(C)cc(OCC(=O)Nc2ccc(-c3nc4ccccc4s3)cc2)c1
- miR-21 reporter: -41%
> Cc1ccc(CNC(=O)CCCn2c(=O)c3sccc3n(CC(=O)Nc3c(C)cccc3C)c2=O)cc1
- miR-21 reporter: -16%
> CCOc1ccc2nc(NC(=O)c3cccn(Cc4ccccc4Cl)c3=O)sc2c1
- miR-21 reporter: -3%
> COc1cccc(NC(=O)c2cccn(Cc3ccccc3C)c2=O)c1
- miR-21 reporter: 2%
> Cc1cccc(CN2C(=O)CN=C(c3ccccc3)c3cc(Cl)ccc32)c1
- miR-21 reporter: 9%
> CCN(CC)C(=O)c1ccc(NC(=O)CCn2nc(-c3ccc(C)cc3)c3ccccc3c2=O)cc1
- miR-21 reporter: 24%
> CCC(=O)N1CC(=O)Nc2ccc(C)cc2C1c1ccc(F)cc1 (stereo unspecified)
- miR-21 reporter: -22%
> O=c1c2ccccc2nc(/C=C/c2ccccc2O)n1-c1ccc(Br)cc1
- miR-21 reporter: 21%
> CCCCCc1nc2ccccc2c(=O)n1-c1ccc(C)cc1
- miR-21 reporter: -1%

Filtered by structure: the compounds so far with a Cl atom.
> O=C(COc1ccccc1Cl)N1CCN(CCc2ccncc2)CC1
- miR-21 reporter: -9%
> N#Cc1cc2c(nc1SCC(=O)Nc1ccc(F)c(Cl)c1)C1CCN2CC1
- miR-21 reporter: -37%
> CCOc1cc2[nH]c(=O)n(CCCC(=O)N3CCN(c4cccc(Cl)c4)CC3)c(=O)c2cc1OCC
- miR-21 reporter: ?
> Cc1ccc2oc(-c3ccc(Cl)cc3)c(O)c(=O)c2c1
- miR-21 reporter: -40%
> COc1cccc(/C=C/c2nc3ccccc3c(=O)n2-c2ccc(Cl)cc2)c1OC
- miR-21 reporter: -3%
> Cc1ccc(S(=O)(=O)N(CC(=O)NCCSc2ccc(Cl)cc2)c2ccccc2C)cc1
- miR-21 reporter: ?
> Cc1c(Cl)cccc1NC(=O)CN1C(=O)C(C)N=C(c2ccccc2)c2ccccc21 (stereo unspecified)
- miR-21 reporter: 0%
> CCN(CC)CCSc1nc2ccccc2c(=O)n1-c1ccc(Cl)cc1
- miR-21 reporter: 17%
> COc1ccc(NC(=O)c2cccn(Cc3ccc(Cl)cc3)c2=O)c(OC)c1
- miR-21 reporter: 10%
> COc1cc2[nH]c(=O)n(Cc3ccc(C(=O)N4CCN(c5ccc(Cl)cc5)CC4)cc3)c(=O)c2cc1OC
- miR-21 reporter: ?
> Oc1ccc(C(=C(Cl)Cl)c2ccc(O)cc2)cc1
- miR-21 reporter: 1%
> CCOc1ccc2nc(NC(=O)c3cccn(Cc4ccccc4Cl)c3=O)sc2c1
- miR-21 reporter: -3%

> Cc1cccc(CN2C(=O)CN=C(c3ccccc3)c3cc(Cl)ccc32)c1
- miR-21 reporter: 9%
